E coli growth: E. coli growth inhibition. Escherichia coli growth, OD600, 23 h; hits give low values. OD600 absorbance (test concentration not listed). hit rate 0.21% among 330,000. AID 1053175;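 active = OD600 absorbance below the run mean of sample wells minus 3.6 SD, in any replicate, cut at about 0.56 in these data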;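 note: stock transfer was 300 nL into about 60 µL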
UCH37 inh: inhibitors of human deubiquitinating enzyme UCH37. purified proteasome/UCH37, Ub-AMC cleavage fluorescence. AID 588478. Q9Y5K5. inhibition, % (test concentration not listed). hit rate 0.33% among 330,000;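 active = mean of two replicates above 20%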;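 note: 0% = compound-free wells with enzyme and 100% = wells lacking proteasome; stock transfer was 100 nL into about 20 µL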
Target sequence (Q9Y5K5 whole entry, looked up): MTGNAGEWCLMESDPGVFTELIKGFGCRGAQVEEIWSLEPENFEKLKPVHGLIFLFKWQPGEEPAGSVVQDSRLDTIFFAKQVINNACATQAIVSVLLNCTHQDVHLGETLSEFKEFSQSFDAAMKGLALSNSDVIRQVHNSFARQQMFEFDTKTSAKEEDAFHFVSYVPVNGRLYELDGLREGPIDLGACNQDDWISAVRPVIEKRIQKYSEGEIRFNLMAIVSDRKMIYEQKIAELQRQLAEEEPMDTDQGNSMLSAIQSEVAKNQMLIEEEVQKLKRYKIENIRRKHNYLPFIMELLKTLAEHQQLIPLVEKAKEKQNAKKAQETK
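Test system – human UCH37 enzyme supplied as purified proteasome complex · Incubation – 30 min preincubation with enzyme, 25 min cleavage at room temperature · Detection – AMC fluorescence from Ub-AMC cleavage, excitation 355 nm, emission 460 nm · Benchmarks – no-proteasome wells (full inhibition) and compound-free wells (no inhibition)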
LANA-H2A inh: blocks KSHV LANA binding to histone H2A/H2B; Q9QR71; inhibition, % (no concentration beside the values); AID 2629; hit rate 0.6% among 320,000; cell-free LANA-H2A/H2B peptide, fluorescence polarization; in the data active = inhibition mostly above about 10%, no sharp cut-off; inactive = mostly below about 6.7%;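 note: stock transfer was 7.5 nL into about 10 µL; 0% = median of vehicle wells and 100% = median of positive control wells; one replicate is shown; the record names a cut of 25% in any replicate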
HNF4A DNA FP: change in binding of human HNF4 alpha to DNA; HNF4a-FITC DNA binding, fluorescence polarization, 1 h; activity change, % at 10 µM; hit rate 0.3% among 360,000; in the data active = activity change above about 30%, passing the limit was not always enough;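 note: controls were the assay level and a saturating level of protein; the project sought stronger binding though the title names inhibitors; some compounds called inactive have numbers as strong as hits; positive values seem to mean higher polarization but the record does not say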
Beta2AR agonist: human beta-2 adrenergic receptor agonism by FAP; P07550; Am2.2-beta2AR cells, FAP receptor internalization, flow cytometry; reference of the scale not given here; response, % (test concentration not listed); hit rate 0.43% among 340,000;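 active = response above a set limit, near 3 SD of response in nonfluorescent compounds, cut at about 42% in these data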;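 note: stock transfer was 100 nL into about 11 µL; a reference agonist was the positive control; negative values mostly stem from fluorescent compounds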
Target sequence (P07550 whole entry, looked up): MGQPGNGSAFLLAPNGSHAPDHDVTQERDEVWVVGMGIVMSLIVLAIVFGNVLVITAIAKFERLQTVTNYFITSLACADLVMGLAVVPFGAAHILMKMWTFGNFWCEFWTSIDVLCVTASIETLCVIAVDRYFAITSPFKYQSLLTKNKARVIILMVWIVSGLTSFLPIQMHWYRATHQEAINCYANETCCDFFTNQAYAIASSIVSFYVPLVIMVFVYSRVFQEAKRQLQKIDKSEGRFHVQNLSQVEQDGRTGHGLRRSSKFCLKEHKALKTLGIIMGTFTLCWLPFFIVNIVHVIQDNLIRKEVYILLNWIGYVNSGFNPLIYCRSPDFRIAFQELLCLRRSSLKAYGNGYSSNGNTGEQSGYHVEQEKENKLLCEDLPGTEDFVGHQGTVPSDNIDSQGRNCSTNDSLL
A1 inh: inhibitors of the anti-apoptotic protein A1, read as caspase activation; caspase activation, % (no concentration beside the values); MEF A1-2A-BIM cells, Caspase-Glo 3/7 luminescence, 3 h; percent of clofoctol response, vehicle zero; AID 2462; hit rate 0.066% among 330,000;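 active = over half of replicate activation scores above 10%, or exactly half above 10 with the replicate mean above 10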;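 note: wells of about 30 µL received 50 nL stock; many hits fall short of the cut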
Vif A3G: HIV-1 Vif–A3G interaction blockers – biochemical, TR-FRET, GST-Vif 1-94, biotin-A3G peptide, dose response retest, primary screen (AID 1117319) | TR-FRET GST-Vif / biotin-A3G peptide binding; higher % means a stronger effect; test concentration not given here; strong numbers were not always called active | inhibition, %; hits with a dose series show IC50 in µM | hit rate 0.57% among 260,000;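 active = above the screen mean plus three standard deviations and confirmed in dose response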;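 note: Vif residues 1-94 fused to GST binding biotinylated APOBEC3G peptide 110-148; 0% = full assay without inhibitor and 100% = GST in place of GST-Vif; retest series ran down from 100 µM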
* hit, by the source's call; . = not tested or not shown.

SMILES	E coli growth	UCH37 inh	LANA-H2A inh	HNF4A DNA FP	Beta2AR agonist	A1 inh	Vif A3G
Cc1cc(C)c2[nH]c(=O)c(CN(CC3CCCO3)C(=S)NCc3ccco3)cc2c1 (stereo not drawn)	0.65	-0.2	1.2	1.1	-3	0.6	.
Nc1cc(N)nc(SCc2ccccc2)n1	0.65	6.7	-1.2	0.0	-7	0.6	1%
CCCOc1ccc(/C(O)=C2/C(=O)C(=O)N(CCCn3ccnc3)C2c2cccs2)cc1 (stereo not drawn)	.	3.4	1.3	6.4	-2	-0.7	.
Nc1nnc(SCC(=O)Nc2cccc(S(=O)(=O)N3CCCCC3)c2)s1	0.66	0.8	8.2	3.1	5	0.2	-5%
Cc1ccc(CNCC(=O)Nc2cccc(S(=O)(=O)NC3=NCCCCC3)c2)cc1	0.64	-0.4	-2.5	-0.7	-2	-1.3	-1%
CN(CC1CCCN(CCc2ccc(Cl)cc2)C1)C(=O)CC(F)(F)F (stereo not drawn)	0.66	1.5	0.4	1.2	-9	-0.8	.
COC(=O)CSc1nnc(C)n1-c1ccc(C)cc1	0.73	2.5	-1.1	-18	4	0.6	15%
O=C(Cc1ccccc1)N1CCN(S(=O)(=O)c2ccc([N+](=O)[O-])cc2)CC1	0.66	2.2	0.0	8.1	-3	1.3	-7%
CC(=O)Nc1ccc(NC(=O)CCn2cnnn2)cc1	0.71	0.3	3.4	-1.1	6	1.4	6%
CCn1ncc([N+](=O)[O-])c1C(=O)Nc1ccc(C(=O)N2CCCCC2)cc1	0.67	2.4	-1.0	0.2	4	0.5	10%
C[C@H]([C@H](O)c1ccccc1)N(C)C(=O)CN	.	3.2	-0.4	-0.5	-6	1.5	.
CC(=O)Nc1ccc(NC2=Nc3ccccc3N3C2=Nc2c(c(C)nn2-c2ccccc2)C3c2ccccc2)cc1 (stereo not drawn)	0.72	-27	-1.3	-3.1	5	-0.6	-10%
CCc1cc2c(=O)c(-c3nc4ccccc4n3C)coc2c(CN2CCOCC2)c1O	0.69	-34	-6.8	2.5	-3	-0.6	.
COc1ccc2oc(=O)c(-c3nnc(N)s3)cc2c1	0.67	-73	5.0	-0.5	-2	-2.3	-15%
COC(=O)c1c(C)cc(C)c2c1CC(C)(C)C2=O	0.71	3.6	1.7	-0.1	0	-0.7	-8%
O=C(N=NC(=O)c1ccc2c(O)n(CC3CCCO3)c(O)c2c1)c1cccnc1 (stereo not drawn)	0.65	5.6	-3.3	-1.4	-1	-1.0	0%
Cc1c(NC(=O)C2CCCNC2=O)c(=O)n(-c2ccccc2)n1C (stereo not drawn)	0.73	1.9	2.5	-1.9	1	-0.6	-3%
COc1cc(C(=O)OC(C)CN2C(C)CCCC2C)cc(OC)c1OC (stereo not drawn)	0.68	-0.6	-2.8	-0.1	9	-0.6	.
COc1ccc(Cn2nnnc2CN2CCOCC2)cc1	0.69	-1.5	-0.8	-0.5	-1	1.0	12%
CCN1CCCC1CNC(=O)C(=O)NC(C)c1ccccc1 (stereo not drawn)	0.7	-2.1	3.9	-5.3	-1	0.7	-4%
Cn1nnnc1Sc1ncnc2scc(-c3cccc(Br)c3)c12	.	.	1.8	1.6	19	-0.4	.
COc1ccc(P(=O)(COc2ccc([N+](=O)[O-])cc2)c2ccc(OC)cc2)cc1	0.61	4.6	-6.8	-2.6	-12	-0.4	0%
CN1C(=O)NC(c2ccccc2Cl)C2=C1CC(C)(C)CC2=O (stereo not drawn)	0.66	3.4	-8.0	1.9	-2	0.8	-5%
CC(C)(C)NC(=O)Nc1ccc(F)c(Cl)c1	0.62	4.3	-0.8	-1.9	-15	0.2	-8%
O=C(c1ccccc1)c1ccc(OCCCN2CCCCC2)cc1	0.72	6.1	-3.6	4.1	-8	-1.1	-1%
CC(C)Oc1cccc(C(=O)C2CCCN(Cc3ccc(Oc4ncccn4)cc3)C2)c1 (stereo not drawn)	0.69	-0.9	-0.4	1.8	-1	0.9	-1%
Cc1ccc(Sc2ncccc2C(N)=O)cc1	0.71	-0.4	2.9	0.1	-2	-0.5	.
COc1cccc(/C=C2\SC(=S)N(CCC(=O)Nc3ccc(O)cc3)C2=O)c1	0.66	1.7	-2.1	-2.2	1	0.4	2%
COc1ccc(C(C#N)N2N=C(C)CC2c2ccccc2)cc1OC (stereo not drawn)	.	.	3.3	3.0	0	-0.8	-12%
COCCCn1c(=O)c2ccccc2n(CC(=O)NC2CCCCC2)c1=O	0.71	4.1	-0.1	0.9	-4	-0.2	.
Cc1cc(O)c(Sc2ccccc2)c(=O)o1	0.64	3.6	-1.9	2.3	5	-0.2	.
CC1CCCCC12NC(=O)N(CC(=O)NCc1ccccc1)C2=O (stereo not drawn)	0.65	0.5	1.6	3.1	-9	2.4	2%
Cc1ccc(NC(=O)CCc2nnc3ccc(N4CCN(C)CC4)nn23)cc1F	0.72	2.5	3.4	-2.5	-3	0.1	.
COc1cccc(NC(=O)c2cccc(Cl)c2)c1	0.61	2.5	-3.9	1.7	-2	-9.8	.
Cc1cccc(NC(=O)c2ccccn2)c1C	0.68	0.8	-0.2	1.1	2	-0.2	9%
COc1ccccc1CNC(=O)c1cc(C(C)C)nc2ccccc12	0.69	5.3	1.7	3.4	0	-0.5	-6%
C#CC1(O)CC(C)NCC1(C)CCC#N (stereo not drawn)	0.71	3.0	3.3	1.6	3	0.5	-3%
COCCNC(=O)CCCn1c(=O)c2cc(OC)c(OC)cc2n(CC(=O)c2ccccc2)c1=O	0.67	3.2	-10	0.5	-2	1.9	-5%
Cc1[nH]c2ccccc2c1-c1csc(NC(=O)CSCC(=O)O)n1	0.69	4.5	4.6	5.2	-9	1.1	4%
C/C(=N\NC(=O)c1cccs1)c1ccc2c(c1)OCO2	.	.	-2.6	1.0	-6	1.0	3%
CSC1=NCCN1C(=O)c1ccc(S(=O)(=O)N2CCOCC2)cc1	0.71	-2.1	-3.1	0.3	8	0.4	-8%
C=CCc1ccc(OCCOCCNCCCC)c(OC)c1	0.68	1.8	3.9	0.7	2	-0.9	62%
COc1ccc(/C=C/C(=O)Nc2nnc(C(C)C)s2)cc1OC	0.66	-22	20*	-2.3	17	1.3	29%
CC1=NN(C(=O)c2ccncc2)C(=O)C1N=Nc1ccc2ccccc2c1 (stereo not drawn)	.	.	.	5.0	5	.	0%
Cc1nc(N2CCc3ccccc3C2)[nH]c(=O)c1CCC(C)C	0.71	0.5	-2.5	0.8	-1	0.0	2%
CCOC(=O)c1ccc(NC(=S)N(CCCN(CC)CC)Cc2ccco2)cc1	0.68	6.1	0.3	-0.5	-2	0.3	.
CC(C)Oc1cccc(-c2cc(C(=O)NN3CCOCC3)c3ccccc3n2)c1	0.65	1.0	0.2	2.4	-5	0.0	.
O=C(Nc1ccccn1)C1CCN(S(=O)(=O)c2cccs2)CC1	0.69	-0.5	-7.2	1.4	3	-0.8	-2%
O=C1C=C(c2ccccc2)C[C@H](c2cccs2)[C@H]1n1cnc([N+](=O)[O-])c1	0.7	-0.7	-9.4	-2.0	-5	-0.4	24%
Cn1c(CN2CCN(c3ccccc3NS(C)(=O)=O)CC2)nc2ccccc21	0.68	1.9	-0.1	0.6	-1	0.3	-4%
(list continues)
SMILES	E coli growth	UCH37 inh	LANA-H2A inh	HNF4A DNA FP	Beta2AR agonist	A1 inh	Vif A3G
COc1ccc(-c2cn(CC3CCCCC3)nn2)cc1	0.66	0.3	1.3	-2.9	-9	0.9	.
O=C(Cc1ccc(Br)cc1)N/N=C/c1cccnc1	.	.	2.9	-0.6	-11	1.5	.
CC(C)(C)C(=O)Nc1sc2c(c1C#N)CCCCC2	0.76	3.0	0.3	2.1	-4	0.0	-7%
O=C(CCNc1n[nH]c(=O)[nH]c1=O)N1CCOCC1	0.66	5.6	4.0	0.5	-2	-0.2	0%
CCOC(=O)N1CCC(N2C(=O)c3ccc(C(=O)Nc4cccc(OC)c4)cc3C2=O)CC1	0.73	-8.0	0.2	2.5	9	-2.0	-5%
COc1ccc(C(=O)NNC(=O)c2ccc3ccccc3c2O)cc1	0.69	-16	-1.8	-1.2	1	0.1	.
COc1ccccc1NC(=O)N(Cc1ccccc1)c1ccccn1	0.74	-0.2	-0.9	2.3	3	0.6	-5%
O=c1[nH]c2ccc(NCc3ccccc3OCc3ccc(Cl)cc3)cc2[nH]1	0.7	1.7	0.1	-1.3	6	-1.0	.
CC(=O)Nc1ccc(N2C(=O)CSC2c2ccc(F)cc2)cc1 (stereo not drawn)	0.67	5.1	1.4	-0.9	-7	0.3	1%
CCC(CO)Oc1cc(NC(=O)c2ccc(C)cc2)c2ncn(C(C)C)c2c1 (stereo not drawn)	0.67	-1.2	-3.8	-2.4	1	-0.9	.
OC(COCc1ccc(Cl)cc1)CN1CCN(c2ccccn2)CC1 (stereo not drawn)	0.65	6.9	-2.5	-2.5	-6	0.0	.
Cc1[nH]n(-c2ccccc2)c(=O)c1/C=N/N(c1ccccc1)c1ccccc1	.	.	-3.1	-5.3	8	0.5	-3%
COc1ccc(NC(=O)CNc2cccc(S(=O)(=O)N3CCCCCC3)c2)c([N+](=O)[O-])c1	0.73	1.9	0.6	2.6	14	0.2	8%
CC(=O)Oc1ccc(CCC(C)OC(C)=O)cc1 (stereo not drawn)	0.66	3.1	3.6	0.5	4	0.6	-2%
CCc1cccc(C)c1NC(=O)COC(=O)c1c2c(nc3ccccc13)/C(=C\c1cccs1)CCC2	0.71	-8.4	-0.9	3.3	3	-1.1	-4%
CCCOc1ccccc1/C=C1\SC(N2CCCCC2)=NC1=O	0.69	1.0	-3.4	2.3	1	-0.1	.
CCOc1ccc(C(=O)Nc2cc(C)ccn2)cc1	0.6	4.3	-0.8	3.4	-6	-1.5	1%
CCOc1cc(C2C3=C(CCCC3=O)Nc3nc(C(=O)OC)nn32)ccc1OC (stereo not drawn)	0.65	3.7	20*	-4.4	-5	0.1	-7%
CCOC(=O)CC1Sc2ccccc2NC1=O (stereo not drawn)	0.69	3.1	3.7	-1.2	1	1.4	72%
CC1Cc2cc(-c3csc(NC(=O)Cc4ccccc4)n3)ccc2N1S(C)(=O)=O (stereo not drawn)	0.7	0.1	-12	-0.9	10	0.9	4%
CCCCOc1ccc(CSCCN=C(N)N)cc1	0.62	1.2	.	3.5	3	.	.
CC(=O)N1CCOc2ccc(S(=O)(=O)N3CCC(C(=O)Nc4ccc(C)cc4)CC3)cc21	0.71	1.8	-0.5	1.4	0	1.1	7%
C#CCn1c(C)cc(C)c(S(=O)(=O)c2ccccc2)c1=O	0.67	0.9	-3.5	-1.4	1	-0.6	4%
Nc1nc(Cl)c2ncn(C3OC(CO)C(O)C3O)c2n1 (stereo not drawn)	0.7	1.1	.	3.4	4	.	-3%
O=C(CCSCc1ccccc1F)NCc1cccs1	0.67	0.3	-3.9	1.1	4	-0.2	-5%
Cc1ccc2nc(SC(C)C(=O)N3CC(C)OC(C)C3)[nH]c2c1 (stereo not drawn)	0.7	-0.3	-0.6	1.7	2	-0.2	4%

Source: PubChem
